# Screens from PubChem BioAssay.
# MgrA-DNA mod: alters Staphylococcus aureus MgrA binding to DNA | inhibition, %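 (about 10 µg/mL by stock and volumes)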 | actives 0.13% (n = 84,000) | AID 602314 | fluorescence polarization;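 active = above 50% in either of two replicates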;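 also: 0% = protein plus DNA without compound and 100% = DNA alone without protein; higher means less MgrA bound to DNA so lower polarization; one replicate is shown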
# S aureus helic: blocks Staphylococcus aureus DNA helicase; purified S. aureus helicase, fluorescence unwinding assay; about half of the hits fall short of the stated cut; AID 485395; actives 0.05% (n = 120,000); inhibition, %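 (tested at about 80 µM)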;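 active = both duplicates at 50% or more, or one of them with a favoured structure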;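 also: 0% = mean of negative control wells and 100% = mean of positive control wells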
# Active calls of the source: *; x = no result given; & = joins results of further samples. These rows are one share of the data (hit frequency here may not be typical).
no. | Molecule | S aureus helic | MgrA-DNA mod
1 | O=C(NC(=S)SCc1ccc(Cl)cc1)c1ccccc1 | -10 | 0.2
2 | COC(=O)c1ccc(OCCN2C3=NCCN3c3ccccc32)cc1 | -10 | -0.8
3 | COC(=O)c1ccc(COC(=O)c2ccc3ncsc3c2)o1 | -7 | x
4 | N#Cc1ccc(C(=O)OCC(=O)c2cc3ccccc3o2)cc1 | -4 | x
5 | O=C(CCNS(=O)(=O)c1ccc2[nH]c(=O)ccc2c1)Nc1ccc(CN2CCCCC2)cc1 | -27 | x
6 | CC(C)(C)C1CCC(OC(=O)CCC(=O)Nc2nccs2)CC1 (stereo not drawn) | 10 | x
7 | O=C1Nc2ccccc2C1=NCCCN=C1C(=O)Nc2ccccc21 | -10 | x
8 | Cc1csc2c(=O)sc(NC(=O)c3cccs3)nc12 | x | 2.3
9 | Cc1cccc(-c2cc3nc(-c4ccccc4)cc(=O)n3[nH]2)c1 | 10 | -0.6
10 | CC1CCN(C(=S)NC2CC3CCC2C3)CC1 (stereo not drawn) | x | -1.2
11 | c1ccc(-n2nnnc2N2CCCC2c2nc3ccccc3s2)cc1 (stereo not drawn) | -12 | x
12 | COc1ccc(CCNC(=O)C2CCN(S(C)(=O)=O)CC2)cc1OC | 22 | x
13 | CSC/C(N)=N/S(=O)(=O)c1ccc(Cl)cc1 | x | -0.2
14 | Cc1cc(C(F)(F)F)nc(SCC(=O)NCc2ccccc2)n1 | -4 | -0.1
15 | COc1cc(-c2nc3ccccc3c(=O)n2NC(=O)Cc2ccc(Cl)cc2)cc(OC)c1OC | x | -2.6
16 | C/C(CCc1ccc2c(c1)OCO2)=N\Nc1nc(C)cc(C)n1 | 3 | x
17 | Cc1ccc(OCC(=O)Nc2sc3c(c2C(N)=O)CCCC3)cc1 | 21 | x
18 | CNS(=O)(=O)c1cccc(C(=O)OCc2nnc(-c3cc(OC)c(OC)c(OC)c3)o2)c1 | 25 | x
19 | COc1ccc(CCC(=O)NCCc2cn3c(C)csc3n2)cc1 | 3 | x
20 | CN(Cc1ccccc1)C(=O)Cn1c(=O)oc2cc(S(=O)(=O)N3CCCCC3)ccc21 | -3 | -2.9
21 | Cc1ccc(C2SCC(C(=O)O)N2C(=O)c2cccc(Cl)c2)cc1 (stereo not drawn) | 13 | -6.2
22 | C=CCc1cc(C(=O)O)cc(OC)c1OC | -5 | x
23 | COc1ccc(CNc2ncnc3nc[nH]c23)cc1 | 9 | x
24 | Oc1c(C(c2cccnc2)N2CCCCC2)ccc2cccnc12 (stereo not drawn) | 1 | x
25 | COCc1nnc(NC(=O)/C=C/c2ccc3c(c2)OCO3)s1 | 3 | 2.7
26 | Cc1nccc2[nH]c(=O)c(C(=O)NCc3ccc(F)cc3)cc12 | 5 | x
27 | O=C(NCCSc1ccccc1)c1cc2ccccc2o1 | 5 | -2.7
28 | COC(=O)CSc1cc(C)nc(N)n1 | 4 | -1.7
29 | COC(=O)/C=C1\NC(=O)C(C)S1 (stereo not drawn) | 11 | x
30 | CCC(=O)Oc1ccc(N2C(=O)CCC2=O)cc1 | 10 | x
31 | O=c1oc2ccccc2c(O)c1C=Nc1ccc(Cl)cc1 | x | -2.0
32 | Cc1cc(N2CC34C=CC(O3)C(C(=O)O)C4C2=O)no1 (stereo not drawn) | 11 | -6.8
33 | COc1ccc(C(=O)COc2ccccc2OC)cc1 | -5 | -1.9
34 | O=c1[nH]nc(SCc2cccc(Oc3ccccc3)c2)c(=O)[nH]1 | 17 | -0.3
35 | CNC(=O)Nc1ccc(C(=O)OC)cc1 | -2 | 1.2
36 | CCOC(=O)c1cc(C#N)c(C)nc1N1CCN(S(=O)(=O)c2ccccc2)CC1 | x | 1.4
37 | CCCNC(=O)Cn1nc(C(F)(F)F)cc1C | -12 | -0.6
38 | O=C(Nc1ccccc1)N1C(=O)C2(OCCO2)c2cc(Br)ccc21 | x | 1.0
39 | Cc1ccc(S(=O)(=O)Nc2ccc(F)cc2F)cc1 | x | 3.2
40 | COc1ccccc1NC(C)=O | 11 | -3.2
41 | CCCc1c(SC(=O)N(C)C)ccc(C(C)=O)c1O | x | -1.3
42 | Cc1cccc(OC(C)C(=O)N2CCCCC2)c1 (stereo not drawn) | -15 | -1.2
43 | O=C(c1ccc(Br)cc1)c1cc2ccccc2o1 | 17 | -5.7
44 | CCc1ccc(OCC(=O)N2CCc3ccccc32)cc1 | -15 | -0.1
45 | COC(=O)c1ccc(OC(=O)N2CCOCC2)cc1 | 1 | x
46 | CCCNC(=O)Nc1nc2ccc(OC)cc2s1 | 12 | 2.4
47 | CS(=O)(=O)Nc1ccc2c(c1)OCO2 | 17 | -2.4
48 | O=c1ccc(C(F)(F)F)cn1-c1ccc(C(F)(F)F)cn1 | -20 | x
49 | CC1CN(CC(=O)c2c(N)n(Cc3ccccc3)c(=O)n(C)c2=O)CC(C)O1 (stereo not drawn) | -14 | x
50 | NC(=O)Cn1nc2c3c(cccc3c1=O)-c1ccccc1-2 | 15 | -2.0
51 | CN1C2CCC1CC(NC(=O)c1ccc(Cl)cc1)C2 (stereo not drawn) | x | -0.8
52 | CCCn1c(SCC(=O)NC(=O)NCc2ccccc2)n[nH]c1=O | 5 | x
53 | C=CCN1C(=O)/C(=C2/Sc3ccccc3N2CC)SC1=S | 2 | 13
54 | N#Cc1c(NC(=O)CN2C(=O)CCC2=O)sc2c1CCC2 | -12 | x
55 | CN(C(=S)NCCc1ccccc1)C1CCCCC1 | 5 | 1.6
56 | CCC(=O)N1N=C(c2ccccc2)CC1c1cc2cc(OC)ccc2nc1Cl (stereo not drawn) | 2 | -1.0
57 | O=C(NCc1cccs1)C1CCN(c2ncnc3c2sc2cccc(F)c23)CC1 | 3 | -2.7
58 | CN(C)C(CNC(=O)C1(c2ccccc2)CC1)c1ccco1 (stereo not drawn) | -7 | x
59 | COc1cc2c(cc1OC)C(C)N(C(=O)Nc1cccc(C(F)(F)F)c1)CC2 (stereo not drawn) | x | 0.9
60 | O=C1/C(=C/c2ccc(-c3ccccc3Cl)o2)SC(=S)N1CC1CCCO1 (stereo not drawn) | 1 | 0.2

# Next part:
no. | Molecule | S aureus helic | MgrA-DNA mod
61 | CCOC(=O)C1C2C=CC3(CN(C4CCCC4)C(=O)C13)O2 (stereo not drawn) | 15 | -3.0
62 | CC1(C)Cc2c(sc3ncn4nc(-c5ccncc5)nc4c23)C(C)(C)N1 | 0 | x
63 | CC(=O)Nn1nc2c(n1)C(=NNC(=O)c1ccccc1)c1nn(NC(C)=O)nc1C2=NNC(=O)c1ccccc1 | -5 | 1.0
64 | CC(=O)N1CCc2c(sc(NC(=O)C(C)C)c2-c2nc3ccccc3s2)C1 | -13 | x
65 | COc1cc(C(=O)OC2CSCC2NC(=O)c2ccccc2)cc(OC)c1OC (stereo not drawn) | 6 | -0.6
66 | Cc1cc(NC(=O)Cn2c(=O)n(CC3CCCO3)c(=O)c3ccc(C(=O)NC4CCCCC4)cc32)n[nH]1 (stereo not drawn) | 10 | x
67 | CCc1cccc(CC)c1NC(=O)CSc1ncn[nH]1 | -18 | 1.4
68 | COc1ccc2cc(C(=O)Nc3ccc(O)cc3)sc(=O)c2c1OC | 5 | 1.5
69 | O=C(Cc1cccs1)N1CCC(Cc2ccccc2)CC1 | -2 | 2.2
70 | COC(=O)COc1ccc(S(=O)(=O)Nc2ccc(OC)cc2)cc1C | 2 | -2.4
71 | O=C(CSc1nnc(-c2ccc(C(F)(F)F)cn2)s1)c1ccccc1 | x | -0.1
72 | O=C1c2ccccc2C(=O)N1CSc1nc2ccccc2s1 | -9 | 0.4
73 | COc1ccc(N2CC(NC(=O)N(CCO)Cc3ccccc3)CC2=O)cc1 (stereo not drawn) | -3 | x
74 | O=c1c2ccccc2nc2c3ccccc3c(SCc3ccco3)nn12 | 7 | x
75 | COc1ccc(S(=O)(=O)NCC23CC4CC(CC(C4)C2)C3)cc1 | -2 | -0.8
76 | O=C(CC12CC3CC(CC(C3)C1)C2)Nc1ccc(Cl)cc1 | x | 1.8
77 | COc1ccc(C(=O)Nc2ccon2)cc1S(=O)(=O)Nc1ccccc1 | 13 | x
78 | O=C1/C(=C/c2ccco2)CC(c2ccccc2)C/C1=C\c1ccco1 (stereo not drawn) | -37 | 2.2
79 | COc1ccc(C2NC(=O)c3c(sc4c3CCC4)N2)cc1 (stereo not drawn) | 11 | 6.6
80 | COc1ccccc1/C=C1\SC(=S)N(c2ccccc2)C1=O | -15 | x
81 | COC(=O)COc1ccc(Oc2nc(SC)nc(N(C)C)n2)nn1 | 0 | -0.8
82 | CCOc1cc2c(cc1CCC(=O)O)CCC2 | 2 | -3.4
83 | CCN(Cc1ccncc1)C(=O)C(CO)c1ccccc1 (stereo not drawn) | x | -1.9&-0.3
84 | CCOC(=O)c1ccc(NC(=O)c2cc(Cl)sc2Cl)cc1 | -14 | x
85 | O=C(CC(c1ccc(Cl)cc1)C1CCCCC1=O)c1ccc(Br)cc1 (stereo not drawn) | 8 | -1.1
86 | Cc1cc2ncn(S(=O)(=O)N3CCOCC3)c2cc1C | 20 | -1.9
87 | COc1cccc(CCN2CCC(CNC(=O)Cn3c(=O)oc4ccccc43)CC2)c1 | 8 | x
88 | CCOC(=O)N1CCN(C(=O)c2ccccc2NC(=O)c2cccc(C)c2)CC1 | 10 | 1.1
89 | CNC(=O)NNc1ccc(-c2csnn2)cc1 | 28 | x
90 | N#CCCn1cc(/C=C/C(=O)Oc2cccc(-n3cnnn3)c2)c2ccccc21 | 14 | x

# Pulled one by one from above (5):
no. | Molecule | S aureus helic | MgrA-DNA mod
81 | COC(=O)COc1ccc(Oc2nc(SC)nc(N(C)C)n2)nn1 | 0 | -0.8
17 | Cc1ccc(OCC(=O)Nc2sc3c(c2C(N)=O)CCCC3)cc1 | 21 | x
15 | COc1cc(-c2nc3ccccc3c(=O)n2NC(=O)Cc2ccc(Cl)cc2)cc(OC)c1OC | x | -2.6
23 | COc1ccc(CNc2ncnc3nc[nH]c23)cc1 | 9 | x
10 | CC1CCN(C(=S)NC2CC3CCC2C3)CC1 (stereo not drawn) | x | -1.2

# Continuation.
no. | Molecule | S aureus helic | MgrA-DNA mod
91 | O=C(Cn1cnc2c(nnn2Cc2ccc(F)cc2)c1=O)OCc1ccccc1 | 10 | x
92 | CN(C)C(=S)SCC(=O)Nc1ccccc1O | 11 | x
93 | O=C1Cc2ccccc2C(c2cccc(Cl)c2)N1 (stereo not drawn) | 9 | x
94 | O=C(Nc1nnc(C2CC2)s1)c1ccc2ncsc2c1 | -2 | x
95 | C=CCN1C(=O)C(CC(=O)Nc2ccccc2)SC1=Nc1ccc(O)cc1 (stereo not drawn) | 6 | 0.3
96 | C=CCOc1cccc(/C=C2/C(=O)NC(=S)N2C(C)=O)c1 | -1 | 2.7
97 | O=C(COC(=O)c1ccccc1)NC1CC1 | -21 | 0.0
98 | CC(C)N=Cc1nc(-c2ccccc2)[nH]c1Cl | x | 4.2
99 | COc1ccccc1NC(=O)CCC(=O)N1CCSc2ccccc21 | 20 | x
100 | CC(C)(C)c1ccc(C(=O)n2cc(Br)cn2)cc1 | 17 | 3.3
101 | CCOC(=O)c1c(C)n(-c2ccccc2)c2c1cc(OC(=O)c1ccccc1OC)c1ccccc12 | x | -2.3
102 | COc1ccc(-c2ocnc2C(=O)NCCN2CCCCCC2)cc1 | 13 | 1.8
103 | CSCC(C(=O)O)N1C(=O)c2ccc(C(=O)O)cc2C1=O (stereo not drawn) | -1 | x
104 | CCC1CCCCN1C(=O)COC(=O)c1ccc(O)cc1 (stereo not drawn) | 13 | -3.1
105 | Cc1ncc(CNS(=O)(=O)c2ccccc2C(F)(F)F)c(N)n1 | x | -1.5
106 | CC1Sc2ccccc2NC(=O)C1C (stereo not drawn) | 18 | x
107 | CC(=O)Nc1ccc2c(C)cc(=O)[nH]c2c1 | -13 | 0.7
108 | O=C(CSc1ncccn1)N(C1CCCCC1)C1CCCCC1 | 5 | x
109 | COc1ccc(C(=O)Cc2nc3ccccc3[nH]2)cc1OC | -12 | x
110 | CC(Sc1nnc(-c2cccc(Br)c2)o1)C(=O)c1ccccc1 (stereo not drawn) | 12 | x
111 | COc1cccc(-c2cc(C(F)(F)F)nc(-n3cccn3)n2)c1 | 15 | -2.6
112 | O=C(Nc1nc2ccsc2c(=O)s1)c1ccccc1 | x | 0.1
113 | COc1ccccc1NC(=S)NCC(C)(C)C(=O)O | x | -1.5
114 | O=C(Oc1ccc(-c2nnco2)cc1)c1ccccc1F | 5 | x
115 | Nc1cc(NC(=O)c2ccccc2O)ccc1Cl | x | -1.4
116 | CS(=O)(=O)c1ccc(C(=O)NCCc2ccc(S(N)(=O)=O)cc2)cc1 | -23 | x
117 | Nn1c(SCC(=O)Nc2ccccc2)nncc1=O | 2 | x
118 | O=C1CCC(C(=O)OCC(=O)c2ccc(Cl)cc2)=NN1 | -9 | x
119 | O=C1CS/C(=N/C(=O)NCC2CCCC(CNC(=O)/N=C3\NC(=O)CS3)C2)N1 (stereo not drawn) | 21 | x
120 | CC(=O)N[C@@H](CCC(=O)O)C(=O)O | x | 1.5
121 | O=C(Nc1nc2c(s1)Cc1ccccc1-2)c1ccco1 | x | -1.0
122 | O=c1[nH]cnc2sc3c(c12)CCCC3 | -16 | -2.8&1.6
123 | COc1ccc(C(=O)Nc2ccc3sc(C)nc3c2)cc1 | x | -0.8
124 | CN(NC1OC(=O)c2ccccc21)c1ncc(Cl)cc1C(F)(F)F (stereo not drawn) | x | -2.4
125 | CC(C)(C)N1CSC(=S)N(Cc2ccco2)C1 | 21 | x
126 | CC1(C)C2CC=C(/C=C(\C#N)C(N)=O)C1C2 (stereo not drawn) | -24 | x
127 | O=C(c1ccccc1)c1ccc2nc(-c3ccco3)c(-c3ccco3)nc2c1 | 5 | 63*
128 | CC(=O)N(CC(=O)Nc1ccc(C)cc1)c1ccccc1 | 14 | 3.8
129 | CC1CC(C)CN(CCCNC(=O)c2ccc3c(c2)N(C)C(=O)/C(=C/c2ccccc2F)S3)C1 (stereo not drawn) | -10 | -2.3
130 | Cn1c(=O)c2c(SCC(=O)N3CCCc4ccccc43)nc(-c3cccs3)nc2n(C)c1=O | 21 | -1.4
131 | Cc1ccc(/C=C2\SC(=O)N(c3ccccc3)C2=O)o1 | x | 3.8
132 | COC(=O)CNC(=O)C1CCN(c2nc(C)cc(-c3ccccc3)n2)CC1 | 0 | -0.9
